# TRPML1 ag = qHTS for Agonists of the Human Mucolipin Transient Receptor Potential 1 (TRPML1); Mucolipin-1 (Homo sapiens), Q9GZU1; TRPML1-expressing cells, Ca2+ dye fluorescence, FDSS; host cell line not named in the record; reference of the full effect not given here; activation, % (concentration not given with the values); actives 0.12% (n = 410,000); AID 624414, 2012; in the data active = activation above about 50%; inconclusive = about 30% to 50%; inactive = below about 30%; also: 0% is about no effect; the text of the record puts the active cut at 80%
# Target sequence (Q9GZU1 whole entry, looked up): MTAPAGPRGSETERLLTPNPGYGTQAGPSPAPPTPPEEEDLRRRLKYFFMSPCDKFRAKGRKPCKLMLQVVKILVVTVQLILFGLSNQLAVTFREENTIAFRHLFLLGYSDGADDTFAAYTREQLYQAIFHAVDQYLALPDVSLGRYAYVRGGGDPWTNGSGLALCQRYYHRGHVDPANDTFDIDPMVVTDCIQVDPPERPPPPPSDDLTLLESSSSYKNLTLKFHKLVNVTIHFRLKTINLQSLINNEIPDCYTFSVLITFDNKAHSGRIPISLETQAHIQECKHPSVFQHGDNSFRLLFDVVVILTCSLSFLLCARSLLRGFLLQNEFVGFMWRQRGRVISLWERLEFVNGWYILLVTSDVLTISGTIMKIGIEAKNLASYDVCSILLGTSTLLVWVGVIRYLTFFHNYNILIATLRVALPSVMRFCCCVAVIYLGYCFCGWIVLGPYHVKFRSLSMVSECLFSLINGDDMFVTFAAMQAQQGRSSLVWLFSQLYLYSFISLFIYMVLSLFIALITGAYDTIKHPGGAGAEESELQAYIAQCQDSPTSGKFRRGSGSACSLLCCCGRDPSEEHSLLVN
#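 Cells: TRPML1-DL, 1X Tet inducer, ~16 h at 37 degrees C/5% CO2. Dye: ABD Ca8 no-wash + quencher, 45-90 min RT. Read: 10 s baseline, compound add, 110 s agonist phase; 54-4 EC80 (4uM final), 110 s antagonist phase.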
# Six1-Eya2 inh = qHTS Assay for Inhibitors of the Six1/Eya2 Interaction. Homeobox protein SIX1 (Homo sapiens) + Protein phosphatase EYA2 (Homo sapiens), …. AlphaScreen GST-Six1/His-Eya2 binding, biochemical; active compounds read low; control for the full effect not named in the record. activity change, % (test concentration not listed). actives 0.56% (n = 360,000). AID 651725, 2012; in the data active = activity change below about -65%; inconclusive = about -30% to -65%; inactive = above about -30%; also: % is scaled to controls: 0 for no effect and ±100 for the full control effect
#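 AlphaScreen with GST-Six1 and His-Eya2 (5X mix: 250 nM and 500 nM), glutathione donor and nickel acceptor beads; buffer 50 mM Tris pH 8.0, 300 mM NaCl, 1 mM TCEP; 1 h at 37 C in the dark.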
# TRPML1 blocker = qHTS for Inhibitors of the Human Mucolipin Transient Receptor Potential 1 (TRPML1) | activity change, negative = inhibition, % (no concentration beside the values) | TRPML1-inducible cells, Ca2+ dye fluorescence, FDSS; active compounds read low; inhibition of EC80 agonist-evoked calcium signal | actives 0.02% (n = 390,000) | Mucolipin-1 (Homo sapiens), Q9GZU1; in the data active means activity change below about -50%; inconclusive means about -30% to -50%; inactive means above about -30%;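 also: stimulus is agonist 54-4 at its EC80 concentration; % is scaled to controls: 0 for no effect and ±100 for the full control effect; compound concentration not given in the record; the text of the record puts the active cut at -80%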
#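 TRPML1-DL cells, Tet-induced overnight (~16 h, 37 °C) at 1,500 cells/well, were loaded with Ca8 no-wash dye plus quencher for 45-90 min at room temperature. Compounds were pinned during FDSS kinetic reading; agonist 54-4 at EC80 (4 uM final) then added.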
# TRPV1 potentiator = HTS Assay for Compounds that Act as Potentiators of the Vanilloid Receptor 1. potentiation, % at 8.33 µM. actives 0.02% (n = 320,000). TRPV1-expressing cells, Fluo-8 calcium influx, capsaicin EC20 potentiation; host cell line not named in the record; control for the full effect not named in the record. Transient receptor potential cation channel subfamily V member 1 (Homo sapiens), Q8NER1; active means potentiation above 80%; inconclusive means 30% to 80%; inactive means below 30%; also: 0% is about no effect
#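 Fluo-8 calcium influx in TRPV1-expressing cells, kinetic read (ex 480/em 520 nm). Compound added and read 3 min for agonist activity, followed by capsaicin at EC20 final and 2 min further read for enhancement.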
# D2 potentiator = Beta-Arrestin HTS for Positive Allosteric Modulators of the Human D2 Dopamine Receptor: Potentiators; DiscoveRx D2 beta-arrestin cells, luminescence, 90 min; 100% = 57 uM dopamine signal; potentiation, % (no concentration beside the values); actives 0.23% (n = 360,000); AID 624464, 2012; active = potentiation of 50% or more; inconclusive = 30% to 50%; inactive = 30% or less;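 also: compound concentration not given in the record; tested on top of an EC20 dose of dopamine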
# Target sequence (P14416 whole entry, looked up): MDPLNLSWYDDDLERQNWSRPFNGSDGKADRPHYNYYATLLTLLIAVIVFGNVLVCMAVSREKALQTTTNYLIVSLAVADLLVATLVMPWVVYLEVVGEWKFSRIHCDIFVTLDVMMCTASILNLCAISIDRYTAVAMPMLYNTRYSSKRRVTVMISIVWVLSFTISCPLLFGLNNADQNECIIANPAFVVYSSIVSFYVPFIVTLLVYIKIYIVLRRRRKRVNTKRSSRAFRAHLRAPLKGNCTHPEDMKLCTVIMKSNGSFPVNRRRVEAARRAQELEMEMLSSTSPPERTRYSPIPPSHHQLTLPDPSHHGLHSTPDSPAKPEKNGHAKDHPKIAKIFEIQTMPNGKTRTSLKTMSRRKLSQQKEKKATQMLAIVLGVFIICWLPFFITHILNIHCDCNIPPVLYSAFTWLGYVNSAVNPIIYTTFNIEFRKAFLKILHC
#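 D2 cells co-treated with compound plus 50 nM dopamine (EC20) for 90 min at 37 deg C to detect potentiation. Beta-arrestin recruitment was read as enzyme-fragment luminescence after 1 h at ambient temperature. Full response was set by 57 uM dopamine.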
# CtBP-E1A blk = qHTS Assay for Inhibitors of the CtBP/E1A Interaction; AlphaScreen GST-E1A/His-CtBP binding, 1536-well; active compounds read low; control for the full effect not named in the record; activity change, % (concentration not given with the values); actives 0.49% (n = 340,000); AID 651724, 2012; in the data active means activity change below about -65%; inconclusive means about -30% to -65%; inactive means above about -30%; also: % is scaled to controls: 0 for no effect and ±100 for the full control effect
#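 GST-E1A and His-tagged CtBP (125 nM each as 5X stock) were preincubated with pin-transferred compound for 2 h at 37 °C in the dark, then glutathione donor and nickel acceptor beads were added for 1 h before AlphaScreen reading.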
# Numbers without * were called inactive; ? = inconclusive; · = no result given; & = joins results of further samples.
SMILES,TRPML1 ag,Six1-Eya2 inh,TRPML1 blocker,TRPV1 potentiator,D2 potentiator,CtBP-E1A blk
COc1cccc(N(CC(=O)Nc2ccc3c(c2)OCO3)S(=O)(=O)c2ccccc2)c1,0.9,-14,-14,13,5,-9
COc1ccccc1OCC(O)CN1CCOCC1 (stereo not given),-0.2,-1,1,-1,-11,4
CC(=O)NC(Cc1ccccc1)C(=O)NC1CCN(C(=O)c2ccc([N+](=O)[O-])cc2)CC1 (stereo not given),2.0,10,-3,-3,-4,2
Cc1sc2ncn(CC(=O)NCCCC(=O)NCc3ccc(F)cc3)c(=O)c2c1C,0.3,0,53,3,-2,-14
O=C(CSc1nnc(CNC(=O)C23CC4CC(CC(C4)C2)C3)n1-c1ccccc1)Nc1ccc(F)cc1,0.7,10,-7,7,5,1
Cc1noc(/C=C/c2ccco2)c1S(=O)(=O)N1CCC(C(=O)N(C)Cc2ccccc2)CC1,0.6,-3,9,2,-6,-6
Cc1nc2ccc(S(=O)(=O)NC(C(=O)N3CCn4c3nc3ccccc34)C(C)C)cc2s1 (stereo not given),1.5,1,5,·,-11,0
COc1ccccc1C(=O)Nc1sc(C(=O)N2CCCC2)c(C)c1C#N,-0.8,13,-7,-3,-6,1
COc1ccc(C(C)(O)c2nc(-c3ccccc3)cs2)cc1 (stereo not given),-0.3,5,·,·,-1,3
Cc1ccc(CNC(=O)CCc2nc3ccccc3c(=O)[nH]2)cc1,-0.7,-1,-9,-6,-13,4
O=C(Nc1ccccc1C(=O)NCCc1ccccc1)c1ccco1,0.3,-1,-12,-15,-2,-1
FC(F)(F)c1cc(-c2ccccc2)nc(N2CCCCC2)n1,-0.1,30,-1,-3,-5,30
COc1cc2c(cc1OC)C1(Nc3c-2c(C)nn3-c2ccccc2)C(=O)Nc2ccccc21 (stereo not given),-0.8,-10,-5,15,9,-3
COc1ccc(CCNC(=O)c2c(O)c3ccccc3n(C)c2=O)cc1,2.8,-2,2,12,-8,-16
Cc1ccccc1NC(=O)C1COc2ccccc2O1 (stereo not given),0.9,4,13,-11,0,15

# Some of these compounds in order of SMILES length, rising.
SMILES,TRPML1 ag,Six1-Eya2 inh,TRPML1 blocker,TRPV1 potentiator,D2 potentiator,CtBP-E1A blk
COc1ccccc1OCC(O)CN1CCOCC1 (stereo not given),-0.2,-1,1,-1,-11,4
Cc1ccccc1NC(=O)C1COc2ccccc2O1 (stereo not given),0.9,4,13,-11,0,15
FC(F)(F)c1cc(-c2ccccc2)nc(N2CCCCC2)n1,-0.1,30,-1,-3,-5,30
Cc1ccc(CNC(=O)CCc2nc3ccccc3c(=O)[nH]2)cc1,-0.7,-1,-9,-6,-13,4
COc1ccc(CCNC(=O)c2c(O)c3ccccc3n(C)c2=O)cc1,2.8,-2,2,12,-8,-16
COc1ccccc1C(=O)Nc1sc(C(=O)N2CCCC2)c(C)c1C#N,-0.8,13,-7,-3,-6,1
Cc1sc2ncn(CC(=O)NCCCC(=O)NCc3ccc(F)cc3)c(=O)c2c1C,0.3,0,53,3,-2,-14
COc1cccc(N(CC(=O)Nc2ccc3c(c2)OCO3)S(=O)(=O)c2ccccc2)c1,0.9,-14,-14,13,5,-9
COc1cc2c(cc1OC)C1(Nc3c-2c(C)nn3-c2ccccc2)C(=O)Nc2ccccc21 (stereo not given),-0.8,-10,-5,15,9,-3
Cc1nc2ccc(S(=O)(=O)NC(C(=O)N3CCn4c3nc3ccccc34)C(C)C)cc2s1 (stereo not given),1.5,1,5,·,-11,0
Cc1noc(/C=C/c2ccco2)c1S(=O)(=O)N1CCC(C(=O)N(C)Cc2ccccc2)CC1,0.6,-3,9,2,-6,-6
CC(=O)NC(Cc1ccccc1)C(=O)NC1CCN(C(=O)c2ccc([N+](=O)[O-])cc2)CC1 (stereo not given),2.0,10,-3,-3,-4,2
O=C(CSc1nnc(CNC(=O)C23CC4CC(CC(C4)C2)C3)n1-c1ccccc1)Nc1ccc(F)cc1,0.7,10,-7,7,5,1

# Continued:
SMILES,TRPML1 ag,Six1-Eya2 inh,TRPML1 blocker,TRPV1 potentiator,D2 potentiator,CtBP-E1A blk
O=C(NCCN1CCNC1=O)C1CCC(=O)N(Cc2ccccc2F)C1 (stereo not given),-0.4,3,-7,5,-14,23
Cc1cccc2cc(CN(Cc3cccs3)C(=S)NCC3CCCO3)c(=O)[nH]c12 (stereo not given),1.6,-3,-2,-15,-17,-5
CCCn1c(SCC(=O)NCc2ccccc2)n[nH]c1=O,-0.5,2,4,7,9,5
O=C1CCCN1c1ccc(S(=O)(=O)NCc2ccco2)cc1,-1.2,21,-11,23,-2,0
O=C(c1cc(-c2ccccc2)nc2ccccc12)N1CCN(c2ccccn2)CC1,1.0,-11,-6,6,25,-11
CC1=C(C(=O)N(C(C)C)C(C)C)CC(CC(=O)NCCc2ccccn2)C(=O)N1Cc1ccccc1 (stereo not given),-0.9,5,-1,·,5,2
Cc1ccc(NC(=O)N(CCCN2CCOCC2)Cc2cc3cc4c(cc3[nH]c2=O)OCO4)cc1,1.4,-2,-2,-1,-12,-5
Cn1c(CN2CCCC2)nc2cc(NC(=O)c3ccco3)ccc21,-0.2,-3,3,-4,-6,-2
CCOC(=O)C1(Cc2ccccc2C)CCCN(C(=O)c2ccc3nccnc3c2)C1 (stereo not given),0.3,-3,-19,-3,7,11
O=C(O)CNC(=O)/C(=C\c1ccc2c(c1)OCO2)NC(=O)c1ccc(Br)cc1,-0.3,11,46,-3,-2,-2
O=C(NC1CCCc2ccccc21)c1ccccc1Br (stereo not given),-0.3,1,7,2,-5,9
O=C(COc1ccc(Cl)cc1Br)Nc1ccccc1N1CCCC1,14,-29,3,-4,-28,3
Cc1ccc(NC(=O)CCN2C(=O)NC(C)(C)C2=O)cc1F,-0.3,-6,-6,3,-4,9
Cc1cccn2c(=O)c3cc(C(=O)N4CCN(Cc5ccccc5)CC4)sc3nc12,0.6,-13,3,-8,0,-25
COc1ccccc1-c1ccc(SCc2ccc([N+](=O)[O-])cc2)nn1,0.6,-20,3,-3,-10,-13
c1ccc(CCn2c(C3CC3)nc3ccccc32)cc1,-0.3,4,-13,-5,-9,-2
NC(=O)c1nn(Cc2ccccc2)c(=O)c2ccccc12,0.3,0,-11,9,1,-7
Cc1ccc(-c2csc(N(C)C(=O)c3c(C)nn(-c4ccccc4)c3Cl)n2)cc1,-0.7,-1,8,?,-1,11
C=C1C(=O)OC2C1CCC(C)=CCCC1(C)OC21 (stereo not given),-0.4,11,·,·,·,-2
COC(=O)c1ccccc1NC(=O)CCCn1nc([N+](=O)[O-])cc1C,-0.8,21,-5,-3,-3,7
CCOC(=O)C(NC(=O)c1ccccc1Cl)(Nc1ccc(C(F)(F)F)cc1)C(F)(F)F (stereo not given),-0.2,-4,3,-20,-5,0
Cc1ccc(C(=O)OCC(=O)Nc2cc(C(C)(C)C)nn2-c2ccccc2)c(O)c1,2.2,9,15,-5,-7,-6
CN(C)S(=O)(=O)c1cccc(-c2cn3cccnc3n2)c1,0.9,4,12,-9,1,·
CCc1nnc(NS(=O)(=O)c2ccc(NC(=O)c3cc(Cl)ccc3[N+](=O)[O-])cc2)s1,-0.4,3,5,17,0,·
Cc1cccc(N2CC(C(=O)Nc3ccc(S(=O)(=O)N4CCOCC4)cc3)CC2=O)c1C (stereo not given),0.5,7,-16,4,-2,-9
CC(=O)/C(=N/Nc1ccc(Br)cc1)Sc1cccc2cccnc12,2.7,-11,3,5,-7,-29
COc1ccccc1CN(Cc1cc2c(C)ccc(C)c2[nH]c1=O)Cc1nnnn1Cc1ccco1,?,-6,-5,15,-1,10
COc1ccc(NC(=O)c2cc(C(=O)Nc3ccc(OC)cc3OC)cc([N+](=O)[O-])c2)c(OC)c1,0.3,-1,-6,-2,-4,-2
CC(=O)N1Cc2[nH]c3ccccc3c2CC1C(=O)O (stereo not given),0.5,13,11,-5,-4,-3
CCOc1ccc(NC(=O)COC(=O)c2ccc3ncsc3c2)cc1OCC,-0.1,-24,-4,21,-11,-4
O=C1C(c2ccccc2)SC(=Nc2ccccc2)N1S(=O)(=O)c1ccccc1 (stereo not given),0.8,9,16,20,-16,1
CC(C)(C)OC(=O)N1CCC(C(=O)Nc2cccc(C(=O)NCCCc3ccccc3)c2)CC1,-0.8,-2,-6,·,·,-1
COc1cccc(NC(=O)CSc2nn3c(=O)c(C)nnc3s2)c1,-0.1,-77*,-13,3,7,-99*
CCOc1ccc(NC(=O)C2CCN(S(=O)(=O)c3ccc4c(c3)NC(=O)C(C)S4)CC2)cc1 (stereo not given),-0.8,-2,-8,?,13,10
O=C(COc1ncnc2ccc(Br)cc12)N1CCOCC1,-0.7,7,1,6,20,-5
COc1ccc2nc(N/C(N)=N/C(=S)Nc3ccccc3)nc(C)c2c1,2.1,-25,11,?,-7,·
Cc1no[n+]([O-])c1COc1ccccc1/C=C1\NC(=S)NC1=O,0.4,-18,12,10,-8,-16
COc1ccc(S(=O)(=O)Nc2cccc3c2O[C@H](CN(C)Cc2ccccc2)[C@@H](C)CN([C@H](C)CO)C3=O)cc1,-1.1,-2,-7,·,-3,-19
NCCCC[C@H](NC(=O)C1CCNCC1)c1nnc([C@@H](N)Cc2ccc(O)cc2)o1,-0.8,-12,12,-3,-3,-15
O=C(NCc1ccco1)c1cc(S(=O)(=O)N2CCCCC2)ccc1Cl,-1.0,0,19,1,0,·
O=C(CSC1=Nc2ccccc2C2CC=NN12)Nc1ccc(F)cc1Cl (stereo not given),3.8,12,8,-19,3,-23
COc1ccc(CCNC(=O)C2CC2)cc1OC,0.7,-2,29,6,-4,0
CN(Cc1ccco1)C(=O)CN1C(=O)NC(c2ccccc2)(c2ccccc2)C1=O,0.0,-5,6,13,4,6
COc1ccc(C(CC(=O)Nc2ncccc2C)N2Cc3ccccc3C2=O)cc1OC (stereo not given),1.4&-0.2,5,0&-3,15,1,0
CC(C)CNc1nc(Oc2ccc(=O)n(C)n2)nc(N2CCOCC2)n1,-0.5,1,16,4,4,7
Cc1nc2ccccc2c(=O)n1/N=C/c1ccc(OC(F)F)cc1,-1.3,3,28,-18,-8,-1
CCC(C)N(C(=O)CN1C(=O)NC2(CCc3ccccc32)C1=O)C1CCS(=O)(=O)C1 (stereo not given),-0.5,3,13,2,-5,4
